Screens: PubChem BioAssay, National Center for Advancing Translational Sciences (NCATS)
SmPrx2 inh: Schistosoma Mansoni Peroxiredoxins (Prx2). Schistosoma mansoni peroxiredoxin 2 (Prx2). 0.07% of 65,000 active. Potency, µM. AID 448, 2006. S. mansoni Prx2 activity coupled to TGR/GSH (TGR is thioredoxin glutathione reductase), NADPH fluorescence loss, qHTS; some inactives read as strong as hits; active means full or partial inhibition curve with a strong effect at the top dose; inconclusive means weaker partial or single-point curve; inactive means no accepted curve; note: series up to 57 µM; many of its hits are not listed in these tables
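Purified S. mansoni TGR and Prx2 in pH 7.4 phosphate buffer with EDTA and Tween-20 were preincubated with compounds for 15 min. Further NADPH/GSH was added, then a 2.5 mM H2O2 aliquot initiated turnover, followed kinetically by NADPH fluorescence.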
Anthrax LT inh: qHTS Assay for Anthrax Lethal Toxin Internalization; Cells, anthrax lethal toxin internalization, FRET ratio (460/530); Potency, µM (top dose mostly 40 µM), for the others: at the highest dose activity change, negative = inhibition, actives largely listed as inhibitors; 0.67% of 70,000 active; AID 912, 2007; active = well fitted falling ratio curve with the 530 nm signal flat; inconclusive = other ratio curves, or a change in one channel alone; inactive = flat curves in the ratio and both channels; the % refers to the ratio; note: % is set by controls: 0 for no effect and ±100 for the full control effect; nearly all actives have a fitted effect of over 50% in size; tested in ME-180 cells; beta-lactamase reporter
Numbers without * were called inactive; i = inactive; ? = inconclusive; / = no result given; & = joins results of further samples; [ ] = another dose, or the depositor's remark. Potency is the fitted concentration of half-maximal effect.

cpd	smiles	SmPrx2 inh	Anthrax LT inh
1	O=c1cc(N2CCc3ccccc32)[nH]c(=O)n1-c1ccccc1	>57	-5%
2	CN(C)S(=O)(=O)c1ccc(C(=O)Nc2ccc(F)cc2F)cc1	>57	-2%
3	O=C(O)c1cccnc1Oc1ccccc1	>57	0%
4	N#C/C(C(=O)N1CCOCC1)=C1/SC=C(c2ccccc2)N1c1ccccc1	/	-7%
5	COc1cc([C@@H](O)CO)ccc1OS(=O)(=O)O	>57	-2%
6	CCCS(=O)(=O)C(=C1Nc2ccccc2N1)S(=O)(=O)CCC	>57	?
7	CCCCCCC1/C(=N/O)CCC1C(=O)OC (stereo not given)	>57	-7%
8	CSc1nsc(SC)c1NC(=O)OC1CCCCC1	>57	-28%
9	N#Cc1cc2c(nc1SCC(O)CS(=O)(=O)Cc1ccccc1)CCCC2 (stereo not given)	>57	-6%
10	C[C@H]1C2=C3C(CC[C@H]4C(OCc5ccc(F)cc5C(F)(F)F)OC[C@](C)([C@@H]34)N(C(=O)OC(C)(C)C)C2)C2COC(=O)OCC21 (stereo not given in full)	>11	?
11	N#CCSc1nc(Nc2ccc3c(c2)OCO3)c2ccccc2n1	>57	?
12	CC(=O)c1cn(CC(=O)Nc2ccccc2)c2ccccc12	>57	3%
13	Cc1cc(-c2ccco2)n2c(nc3ccccc32)c1C#N	>57	-6%
14	COc1ccc(NC(=O)Cn2nnc(-c3ccccc3F)n2)cc1Cl	>57	-11%
15	CCn1c(SCC(=O)c2cc(OC)ccc2OC)nnc1C(C)C	>57	5%
16	CC(=O)NC(O)C(=O)c1ccco1 (stereo not given)	>57	0%
17	N#Cc1cccc(-c2cncnc2-n2ccnc2)c1	i	5%
18	CC(=O)[C@H]1CC[C@H]2[C@@H]3C=CC4=CC(=O)CC[C@@]4(C)[C@H]3CC[C@]12C	>57	-8%[3.58 µM]
19	Nc1nnc(-c2cccnc2)s1	/	9%
20	Cc1nn(C)c(C)c1CNC(=O)c1nn2c(c1Cl)NC(c1cccs1)CC2C(F)(F)F (stereo not given)	>57	-17%
21	CCN1CCC[C@H]1CNC(=O)c1c(O)c(Cl)cc(Cl)c1OC	>26	?
22	O=C1CCO1	/	4%
23	CCCCC(=O)NC1(C(F)(F)F)C(=O)N(Cc2ccco2)C(C)=C1C(=O)OC (stereo not given)	>57	-14%
24	Cc1ccc(C(=O)Nc2ccc(S(=O)(=O)O)c3cc(S(=O)(=O)O)cc(S(=O)(=O)O)c23)cc1NC(=O)c1cccc(NC(=O)Nc2cccc(C(=O)Nc3cc(C(=O)Nc4ccc(S(=O)(=O)O)c5cc(S(=O)(=O)O)cc(S(=O)(=O)O)c45)ccc3C)c2)c1	>57&>57	?
25	CCOC(=O)C1CCN(C(=O)CN(c2cc(OC)ccc2OC)S(=O)(=O)c2ccccc2)CC1	>57	18%
26	CN1CCN(CCCNC(=O)Cn2ncc3c4ccccc4n(C)c3c2=O)CC1	>57	-2%
27	COc1ccc(OC)c(S(=O)(=O)Nc2ccccc2C(F)(F)F)c1	>57	-4%
28	CCN1CCCC1CNC(=O)c1cc2c(=O)n(C)c3ccccc3c2n1C (stereo not given)	>57	10µM*
29	CN(CC1COc2ccccc2O1)c1nc(-c2cccnc2)nc2ccccc12 (stereo not given)	>57	-14%
30	CCCC(=O)c1cc(O)c(O)cc1O	/	?
31	C=CCNC(=O)CSc1ccc(Cl)cc1	>57	-2%
32	C#C[C@]1(O)CC[C@@H]2[C@H]3CCc4cc(OC)ccc4[C@@H]3CC[C@@]21C	>57	4%[3.58 µM]
33	COc1ccccc1-n1c(N)c(C(N)=O)sc1=S	>57	13%
34	COc1ccc(OC)c(NC(=O)CC(NCCC2=CCCCC2)C(=O)O)c1 (stereo not given)	>57	7%
35	O=C(Nc1cccc(NC(=O)c2nccc3ccccc23)c1)c1ccco1	>57	?
36	COc1ccc(NC(=O)N2CCC(c3ccccc3)C2)c(OC)c1 (stereo not given)	>57	-12%
37	CCn1c(SCc2nc3ccccc3c(=O)[nH]2)nnc1-c1cccnc1	>57	-4%
38	Cc1cc(N=Cc2cc(Cl)ccc2O)no1	/	3%
39	COc1ccc(-c2ccc(-c3noc(-c4ccc(OC)c(OC)c4)n3)c(OC)n2)cc1	>57	2%
40	CCCCNC(=O)c1cc2c(=O)n3cccc(C)c3nc2n(Cc2ccncc2)c1=N	>57	/
41	Cc1ccc(NC(=O)c2c(C)nc(Nc3nc4ccccc4o3)nc2C)cc1	>57	14%
42	COc1ccccc1NC(=O)N(CCCN1CCOCC1)Cc1cc2cc3c(cc2[nH]c1=O)OCO3	>57	-14%
43	COc1ncc2nc(-c3cn(C)c4ccccc34)c(=O)n(Cc3ccc(F)cc3)c2n1	>57	?
44	CC(C)C1N=C2c3ccccc3N=C(SCc3cc(=O)n4cc(Cl)ccc4n3)N2C1=O (stereo not given)	>57	24%
45	COc1ccc(OC)c(NC(=O)c2nnn(CCc3ccccc3)c2N)c1	>57	-13%
46	CCOc1ncccc1C(=O)OCC(=O)Nc1ncc(C(F)(F)F)cc1Cl	>57	-3%
47	C=CCn1c(SCC(=O)N2CCCC2)nc2cc(C(=O)NCC3CCCO3)ccc2c1=O (stereo not given)	>57	-7%
48	COc1ccc(NC(=O)NCCN2C(=O)C3C4C=CC(C4)C3C2=O)cc1 (stereo not given)	>57	9%
49	CCOCC(=O)Nc1nnc(Cc2ccc(OC)c(OC)c2)s1	>57	?
50	COCCNC(=O)c1ccccc1NC(=O)C1COc2ccccc2O1 (stereo not given)	>57	-1%
51	COc1ccc(O[C@H]2C=C[C@@H](c3ccccc3)O[C@H]2COC(=O)CC/C(C)=N\O[C@@H](C)CN2CCCCc3nc(C)c(C)cc32)cc1	/	18%[1.6 µM]
52	CN1C(=O)C2ON(c3ccccc3)C(c3cccs3)C2C1=O (stereo not given)	>57	-13%
53	NCCc1ccc(O)c(O)c1	>57	7%
54	Cc1ccc(S(=O)(=O)Cn2nnnc2CN(Cc2ccco2)CC2CCCO2)cc1 (stereo not given)	>57	-24%
55	CC(=O)NCC(=O)N[C@H](CCC(=O)O)C(=O)O	>57	-3%
56	Cc1nc(NCc2ccccc2)c2nc(-c3ccccc3)n(CCCN3CCOCC3)c2n1	/	12%
57	C/C(=C\C(=O)c1ccc(C)o1)Nc1ccc(C(=O)O)cc1C	>57	/
58	CCOC(=O)C1CCCN(C2CC(=O)N(c3cccc(C)c3)C2=O)C1 (stereo not given)	>57	3%
59	CCOc1ccccc1Nc1nnc(Cc2ccccc2Cl)c(=O)[nH]1	>57	14%
60	Cc1noc(C)c1CSc1nnc2sc3ccccc3n12	>57	13%

Further structures
cpd	smiles	SmPrx2 inh	Anthrax LT inh
61	Cc1nn2cc(-c3ccc(-c4ccccc4)cc3)nc2s1	>57	1%
62	CCCS(=O)(=O)NCCc1cc2cc(C)c(C)cc2[nH]c1=O	>57	6%
63	CC1CCc2nc(NC(=O)CSc3nc4ccccc4o3)sc2C1 (stereo not given)	>57	?
64	Cc1[nH]c2c(Cl)cccc2c(=O)c1CN1CCCC1	>57	-16%
65	Nn1c(SCc2nc3ccccn3c2Br)nnc1-c1cccnc1	>57	5%
66	COc1ccccc1N(C)S(=O)(=O)c1ccc(C(=O)NC2=NCCS2)cc1	>57	-1%
67	O=C(CCc1nc(-c2ccccc2)no1)N1CCCC1	>57	-5%
68	Cn1c(=O)n(C/C=C/c2ccccc2)c(=O)c2c1nc1n2CCCN1Cc1ccccc1	>57	?
69	CCn1[nH]c(=O)c(=Nc2c(C)n(C)n(-c3ccccc3)c2=O)cc1-c1ccc(Cl)cc1	>57	?
70	O=c1c2c3c(sc2ncn1/N=C/c1ccc(Br)o1)CCCC3	/	?
71	O=S(=O)(O)c1ccc2c(N=Nc3c(O)ccc4ccccc34)cccc2c1	>57	-1%[8 µM]
72	O=C(O)CCN1C(=O)NC2(CCCC2)C1=O	>57	-7%
73	COc1ccc(CC(=O)Nc2cc(C)c3c(=O)oc4ccccc4c3n2)cc1	>57	6%
74	Cc1cc(C)nc(SC2CCOC2=O)n1 (stereo not given)	>57	3%
75	CC(Cc1c[nH]c2ccccc12)NC(=O)C1CCCNC1=O (stereo not given)	/	7%
76	Cc1ccc2c(c1)-c1c(cnn1CC(=O)NC(C)CCc1ccco1)CO2 (stereo not given)	>57	?
77	CO/N=C(/C)CCC(=O)OC[C@@H]1O[C@H](c2ccccc2)C=C[C@@H]1Oc1ccc(OC)cc1	/	-3%[0.064 µM]
78	COc1ccc(NC2=CC(=O)CC(C)(C)C2)cc1OC	/	13%
79	CN(c1ccccc1C(=O)NCc1ccccn1)S(C)(=O)=O	>57	-4%
80	CCOC(=O)C1=C(c2ccccc2)NC(SCC(=O)Nc2cccc(C)c2)=C(C#N)C1c1ccco1 (stereo not given)	>57	-9%
81	CCS(=O)(=O)N1CCN(C(=O)c2ccc(-c3ccccc3)cc2)CC1	>57	7%
82	CN(C)C(=O)N1CCCC(C(=O)NCc2ccccc2)C1 (stereo not given)	>57	10%
83	COc1ccc(S(=O)(=O)NCc2ccc(C(=O)N3CCN(c4ccccn4)CC3)cc2)cc1	?	-2%
84	O=C1CCCC2=C1C(c1ccccc1)C1=C(CCCC1=O)O2	>57	8%
85	COc1ccc(-n2c(=O)c3c4c(sc3n3c(C)nnc23)COC(C(C)C)C4)cc1 (stereo not given)	>57	10%
86	C=CCCC#N	/	-3%
87	CCSc1nnc(NC(=O)CCNS(=O)(=O)c2cc(Br)cnc2N)s1	>57	21%
88	COc1ccc2[nH]cc(CCNc3ccnc(-c4cccc(NS(C)(=O)=O)c4)n3)c2c1	/	-15%
89	COc1ccc(CNC(=O)CSc2nnnn2-c2ccccc2)cc1	>57	-6%
90	CCOC(=O)c1c(C#N)c(SCC(=O)Nc2ccc(OC)cc2)nc2c1CN(CC)CC2	>57	-20%
91	COc1ccc(CCNC(=O)c2nnn(-c3ccc4c(c3)OCCO4)c2N)cc1OC	>57	-23%
92	CCOc1cccc(-c2nnc3sc(COc4ccc(OC)cc4)nn23)c1	>57	-23%
93	COCCNC(=O)CN(CC1CCCO1)C(=O)CCC(=O)Nc1ccccn1 (stereo not given)	>57	-2%
94	COCCN(CCOC)c1ncc(Cl)c(C(=O)c2c(C)cc3ccccn23)n1	>57	-17%
95	O=C(Cn1cnc2sc3c(c2c1=O)CCCC3)NCCC(=O)N1CCC2(CC1)OCCO2	>57	14%
96	CCN1CCN(c2cc(C)c3cc(NC(=O)c4cncc(Br)c4)ccc3n2)CC1	>57	25µM*
97	CCN1CCN(Cc2cc(=O)oc3cc4c(cc23)CCC4)CC1	>57	23%
98	Cc1nn(C)c(C)c1S(=O)(=O)N1CCC(C(=O)NC2CCCCCC2)CC1	>57	-7%
99	COC(=O)Sc1nnc(-c2ccc(Br)cc2)o1	>57	3%
100	CC(=O)N1CC=CC1(CC(C)C)C(=O)O (stereo not given)	/	-7%
101	Cc1nc2cnc(N(C)C)nc2n(C)c1=O	>57	?
102	CCOCCN1CCN(c2c3c(nc4cc(-c5ccc(F)cc5)nn24)CCC3)CC1	>57	3%
103	COCCn1c(=O)c(-c2cc(F)cc(F)c2)nc2cnc(Oc3cccc(Cl)c3)nc21	>11	-12%
104	CCOC(=O)c1nnn(-c2nonc2N)c1CSc1ccccn1	>57	?
105	COc1ccc(N2CCN(C(=O)CSc3ccccc3N)CC2)cc1	>57	-10%
106	Cc1ccc(N2C(=O)[C@@H]3C(c4ccc(F)cc4)=NO[C@@H]3C2=O)cc1	>57	4%
107	COc1ccc(C(=O)N2CCC3(CCCN(c4ccccc4)C3)CC2)cc1	>57	?
108	CCCN1Cc2cccc(C(=O)NCCCOC(C)C)c2C1=O	>57	15%
109	O=C(CCN1c2ccccc2Sc2ccccc21)OCC(=O)N1CCN(C(=O)c2ccco2)CC1	>57	2%
110	Cc1ccc(C2C=C(c3ccc4c(c3)OCO4)Nc3ncnn32)cc1 (stereo not given)	>57	-14%
111	O=C1NC2(CCCCC2)Cc2ccccc21	>57	-13%

Retrieved one by one from above, 5 records:
cpd	smiles	SmPrx2 inh	Anthrax LT inh
50	COCCNC(=O)c1ccccc1NC(=O)C1COc2ccccc2O1 (stereo not given)	>57	-1%
25	CCOC(=O)C1CCN(C(=O)CN(c2cc(OC)ccc2OC)S(=O)(=O)c2ccccc2)CC1	>57	18%
47	C=CCn1c(SCC(=O)N2CCCC2)nc2cc(C(=O)NCC3CCCO3)ccc2c1=O (stereo not given)	>57	-7%
1	O=c1cc(N2CCc3ccccc32)[nH]c(=O)n1-c1ccccc1	>57	-5%
93	COCCNC(=O)CN(CC1CCCO1)C(=O)CCC(=O)Nc1ccccn1 (stereo not given)	>57	-2%

A portion of the library, so the mix of outcomes need not match the whole.
